NOMO-1 viab = NOMO-1 AML cell viability reduction, primary screen, STK33 inhibitor project, CellTiter-Glo luminescence | NOMO-1 AML viability, 72 h | inhibition, % (no concentration beside the values) | 37,000 tested, 7.5% active;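 active = most replicates above 80%; inconclusive = exactly half above 80%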;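 also: wells of about 30 µL received 25 nL stock; 0% = median of vehicle wells and 100% = reference inhibitor level; the first replicate is given; inactives centre near 10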
The depositor's hits bear a star; ? = inconclusive. An excerpt. The share of hits here may be higher or lower than overall.

SMILES | NOMO-1 viab
Cc1noc(C)c1NC(=O)Nc1cccc2c1O[C@@H](CN(C)S(=O)(=O)c1ccc(F)cc1)[C@H](C)CN([C@@H](C)CO)C2=O | 14
COc1ccc(CN(C)C[C@@H]2Oc3ccc(NS(=O)(=O)c4ccc(Cl)cc4)cc3CC(=O)N([C@H](C)CO)C[C@H]2C)cc1 | 18
Cc1ccc(S(=O)(=O)Nc2ccc3c(c2)CC(=O)N([C@H](C)CO)C[C@@H](C)[C@H](CN(C)CC2CC2)O3)cc1 | 12
CCN1C(=O)c2cccc3c(S(=O)(=O)Nc4ccccc4)ccc1c23 | 105*
COc1ccc(S(=O)(=O)Nc2ccc3c(c2)C(=O)N([C@@H](C)CO)C[C@@H](C)[C@@H](CN(C)C(=O)Nc2ccc4c(c2)OCO4)O3)cc1 | 16
C[C@@H]1CN([C@H](C)CO)C(=O)Cc2cc(NC(=O)Nc3ccc(F)cc3)ccc2O[C@H]1CN(C)C(=O)Nc1ccc2c(c1)OCO2 | -24
C[C@@H]1CN([C@@H](C)CO)C(=O)c2cc(NS(=O)(=O)c3ccc(F)cc3)ccc2O[C@H]1CN(C)S(=O)(=O)c1cn(C)cn1 | 1
CC(C)NC(=O)Nc1ccc2c(c1)C(=O)N([C@H](C)CO)C[C@H](C)[C@H](CN(C)Cc1ccc(Oc3ccccc3)cc1)O2 | 26
CCOc1ccccc1OCC(=O)Nc1ccccc1[N+](=O)[O-] | 28
CC(=O)c1cccc(N(CC(=O)Nc2c(C)cccc2C)S(C)(=O)=O)c1 | -27
Cc1nn(CC(O)COc2ccc3ccccc3c2)c(C)c1Br (stereo unspecified) | 25
CC(C)NC(=O)Nc1cccc2c1O[C@@H](CN(C)C(=O)Nc1ccc(C(F)(F)F)cc1)[C@H](C)CN([C@H](C)CO)C2=O | 12
Cc1noc(C)c1S(=O)(=O)Nc1ccc2c(c1)C(=O)N([C@H](C)CO)C[C@@H](C)[C@H](CN(C)S(C)(=O)=O)O2 | 5
CCn1c2ccccc2c2cc(NC(=O)CCCN3C(=O)c4ccccc4C3=O)ccc21 | -3
COc1ccc(NC(=O)CSc2nc3ccc([N+](=O)[O-])cc3[nH]2)cc1 | 28
C=C1C[C@@]23CC[C@@H]4[C@](C)(C(=O)O)CCC[C@@]4(C)C2=CC[C@H]1C3 | 16
COc1ccc(S(=O)(=O)N(C)C[C@@H]2Oc3ccc(NC(=O)CCC(F)(F)F)cc3CC(=O)N([C@H](C)CO)C[C@H]2C)cc1 | -8
COc1ccc(CN2C(=O)CC(Cc3ccc(C)cc3)C2=O)cc1OC (stereo unspecified) | 27
Cc1ccc(OCC(=O)NC2CCS(=O)(=O)C2)cc1 (stereo unspecified) | 16
C[C@H]1CN([C@@H](C)CO)C(=O)c2cccc(NS(=O)(=O)c3cn(C)cn3)c2O[C@@H]1CN(C)C(=O)Nc1ccc(C(F)(F)F)cc1 | 12
C[C@@H]1CN([C@@H](C)CO)C(=O)Cc2cc(NC(=O)Cn3cnnn3)ccc2O[C@@H]1CN(C)C(=O)Nc1ccc(F)cc1 | 10
CCn1cc(C(=O)O)c(=O)c2cc(F)c(N3CCN(C(=O)c4ccc(F)cc4)CC3)cc21 | 13
COc1ccc(CN(C)C[C@H]2OCCCC[C@@H](C)Oc3ccc(NS(=O)(=O)c4ccc(C)cc4)cc3C(=O)N([C@H](C)CO)C[C@@H]2C)cc1 | 22
CSc1cccc(NC(=O)CN(c2ccc3c(c2)OCCO3)S(C)(=O)=O)c1 | 15
COC(=O)CCSc1nc2sc3c(c2c(=O)n1-c1cccc(C)c1)CC(C)(C)OC3 | 23

The final 2 records of the part before come first, to join the parts.
SMILES | NOMO-1 viab
CSc1cccc(NC(=O)CN(c2ccc3c(c2)OCCO3)S(C)(=O)=O)c1 | 15
COC(=O)CCSc1nc2sc3c(c2c(=O)n1-c1cccc(C)c1)CC(C)(C)OC3 | 23
Cc1noc(C)c1S(=O)(=O)Nc1ccc2c(c1)CC(=O)N([C@H](C)CO)C[C@@H](C)[C@@H](CN(C)C(=O)Nc1ccc3c(c1)OCO3)O2 | 3
O=C(CSc1nnc(-c2ccc(Br)cc2)o1)Nc1ccc2ccccc2c1 | 8
Cc1noc(C)c1NC(=O)Nc1ccc2c(c1)C(=O)N([C@H](C)CO)C[C@@H](C)[C@H](CN(C)Cc1ccc(Cl)c(Cl)c1)O2 | 33
C[C@@H]1CN([C@@H](C)CO)C(=O)Cc2cc(NC(=O)Nc3cccc4ccccc34)ccc2O[C@@H]1CN(C)Cc1ccncc1 | 82*
C[C@H]1CN([C@@H](C)CO)C(=O)c2cc(N(C)C)ccc2O[C@@H]1CN(C)C(=O)Nc1ccc2c(c1)OCO2 | -23
COc1ccc(S(=O)(=O)N(C)C[C@H]2Oc3ccc(NS(=O)(=O)c4ccc(F)cc4)cc3C(=O)N([C@@H](C)CO)C[C@@H]2C)cc1 | 16
COc1ccc(NC(=O)N(C)C[C@@H]2Oc3c(NS(=O)(=O)c4ccc(Cl)cc4)cccc3C(=O)N([C@H](C)CO)C[C@@H]2C)cc1 | 20
C[C@@H]1CN([C@H](C)CO)C(=O)Cc2cc(NC(=O)Cn3cnnn3)ccc2O[C@H]1CN(C)C(=O)Nc1ccc(F)cc1 | -2
COc1ccc(NC(=O)Nc2cccc3c2O[C@@H](CN(C)S(=O)(=O)c2ccc(Cl)cc2)[C@@H](C)CN([C@@H](C)CO)C3=O)cc1 | 24
O=C(CCCN1C(=O)c2ccccc2C1=O)Nc1ccc(Br)cc1F | 30
O=C(C/C(=C1/CCc2ccccc2C1=O)c1ccccc1)c1ccccc1 | 115*
C[C@H]1CN([C@@H](C)CO)C(=O)Cc2cc(NS(=O)(=O)c3ccc(Cl)cc3)ccc2O[C@@H]1CN(C)S(C)(=O)=O | 15
CNC[C@@H]1Oc2c(NC(=O)NC3CCCCC3)cccc2C(=O)N([C@@H](C)CO)C[C@@H]1C | -7
Cc1noc(C)c1S(=O)(=O)Nc1ccc2c(c1)C(=O)N([C@H](C)CO)C[C@H](C)[C@H](CN(C)C(=O)c1ccccc1)OCCCC[C@@H](C)O2 | 17
COc1cccc2c1C(=O)c1ccc3c(c1C2=O)C(=O)CC(C)(O)C3 (stereo unspecified) | 93*
C[C@@H]1CN([C@H](C)CO)C(=O)Cc2cc(NS(=O)(=O)c3ccc(Cl)cc3)ccc2O[C@@H]1CN(C)C(=O)Nc1ccc(C(F)(F)F)cc1 | 21
COc1ccc(-n2nc3cc(C)c(NC(=O)COc4ccc(Cl)cc4Cl)cc3n2)cc1 | ?
C=CCSc1nc(N)c(C(=O)Nc2ccccc2)cc1C(N)=O | 4
COc1ccc(S(=O)(=O)N(C)C[C@@H]2Oc3ccc(NC(=O)CCN4CCOCC4)cc3CC(=O)N([C@@H](C)CO)C[C@@H]2C)cc1 | -8
C[C@@H]1CCCCO[C@H](CN(C)C(=O)Nc2ccc3c(c2)OCO3)[C@@H](C)CN([C@H](C)CO)C(=O)c2cc(NS(=O)(=O)c3ccccc3)ccc2O1 | 11
C[C@@H]1CN([C@@H](C)CO)C(=O)c2cccc(NC(=O)NC3CCCCC3)c2O[C@@H]1CN(C)C | -4
C[C@@H]1CN([C@@H](C)CO)C(=O)Cc2cc(NC(=O)Nc3ccc(C(F)(F)F)cc3)ccc2O[C@@H]1CN(C)C | 48
C[C@H](CO)N1C[C@H](C)[C@@H](CN(C)Cc2ccc(Oc3ccccc3)cc2)Oc2ccc(NC(=O)Nc3ccc(C(F)(F)F)cc3)cc2C1=O | 128*
C[C@@H]1CN([C@@H](C)CO)C(=O)Cc2cc(NS(C)(=O)=O)ccc2O[C@@H]1CN(C)C(=O)Nc1ccc2c(c1)OCO2 | 8
COc1cc(N)c(Cl)cc1C(=O)OCCCN1CCCCC1 | 46
Additional compounds follow:
SMILES | NOMO-1 viab
C[C@H]1CN([C@@H](C)CO)C(=O)Cc2cc(NS(C)(=O)=O)ccc2O[C@@H]1CN(C)Cc1ccc(-c2ccccc2)cc1 | 20
COc1ccc(NC(=O)N(C)C[C@H]2Oc3ccc(NS(=O)(=O)c4cn(C)cn4)cc3C(=O)N([C@@H](C)CO)C[C@H]2C)cc1 | 4
COc1ccc(S(=O)(=O)N(C)C[C@@H]2Oc3ccc(NC(=O)NC(C)C)cc3C(=O)N([C@H](C)CO)C[C@H]2C)cc1 | 16
COc1ccc(CC(=O)N(CC#N)CC#N)cc1OC | 24
COC(=O)c1ccc(-n2nnnc2SCC(=O)Nc2ccccc2)cc1 | 47
COC(=O)c1ccc(C(=O)OC)c(NC(=O)c2cnn3cccnc23)c1 | 35
N#Cc1ccccc1NC(=O)CN1CCC(C(N)=O)CC1 | -1
Cc1onc(-c2c(Cl)cccc2Cl)c1NC(=O)N1CCCC1=O | 16
Cc1noc(C)c1S(=O)(=O)Nc1ccc2c(c1)C(=O)N([C@H](C)CO)C[C@H](C)[C@H](CN(C)C(=O)Nc1ccc(F)cc1)OCCCC[C@@H](C)O2 | 0
COc1ccc(NC(=O)N(C)C[C@H]2Oc3c(NC(=O)c4ccc(-c5nccs5)cc4)cccc3C(=O)N([C@@H](C)CO)C[C@H]2C)cc1 | 1
O=C(CSc1nnc(-c2ccco2)n1-c1ccccc1)N1CCc2ccccc21 | 9
Cc1c(Br)c(C(F)(F)F)nn1CC(=O)Nc1cc(Oc2cccnc2)cc([N+](=O)[O-])c1 | 59
C[C@@H]1CCCCO[C@H](CN(C)C(=O)Nc2ccc(F)cc2)[C@@H](C)CN([C@H](C)CO)C(=O)c2cc(N(C)C)ccc2O1 | 20
C[C@@H]1CN([C@@H](C)CO)C(=O)c2cccc(NC(=O)CCCCCC(=O)Nc3ccccc3N)c2O[C@H]1CN(C)C | 32
C[C@H]1CN([C@@H](C)CO)C(=O)Cc2cc(NC(=O)Nc3ccccc3)ccc2O[C@H]1CN(C)Cc1ccc(-c2ccccc2)cc1 | -21
COc1ccc(CC(=O)Nc2cccc(C(=O)O)c2)cc1OC | 9
C[C@H](CO)N1C[C@H](C)[C@@H](CN(C)S(=O)(=O)c2ccccc2)Oc2c(NC(=O)NC3CCCCC3)cccc2C1=O | 15
COc1cc(C(C)=O)ccc1O[C@@H]1O[C@H](CO)[C@@H](O)[C@H](O)[C@H]1O | -5
Cc1ccc(-c2cc(C(F)F)n3ncc(C(=O)NCCCN4CCOCC4)c3n2)cc1 | 5
COc1ccc(S(=O)(=O)N(C)C[C@@H]2Oc3ccc(NS(=O)(=O)c4cccs4)cc3CC(=O)N([C@H](C)CO)C[C@@H]2C)cc1 | 0
COc1cc(C2c3c(cc(OC)c(O)c3O)CC(CO)C2CO[C@@H]2O[C@H](C(=O)O)[C@@H](O)[C@H](O)[C@H]2O)cc(OC)c1O (stereo partly specified) | -11
COc1ccc(OCCN2C(=O)CNC2=S)cc1 | 28
CC(C)NC(=O)Nc1ccc2c(c1)C(=O)N([C@H](C)CO)C[C@H](C)[C@@H](CN(C)Cc1ccc(-c3ccccc3)cc1)O2 | 10
C=C(CO)C(=O)O[C@H]1CC(=C)[C@@H]2CC(=O)[C@H](C)[C@@H]2[C@H]2OC(=O)C(=C)[C@@H]21 | 107*
Cc1cc(N)n(-c2ccc(Oc3ccccc3)c(S(=O)(=O)O)c2)n1 | -7

Ordered by length of the SMILES (rising): some entries from above.
SMILES | NOMO-1 viab
CSc1cccc(NC(=O)CN(c2ccc3c(c2)OCCO3)S(C)(=O)=O)c1 | 15
C[C@@H]1CN([C@H](C)CO)C(=O)Cc2cc(NC(=O)Cn3cnnn3)ccc2O[C@H]1CN(C)C(=O)Nc1ccc(F)cc1 | -2
C[C@H]1CN([C@@H](C)CO)C(=O)Cc2cc(NS(C)(=O)=O)ccc2O[C@@H]1CN(C)Cc1ccc(-c2ccccc2)cc1 | 20

Further compounds
SMILES | NOMO-1 viab
C[C@@H]1CN([C@H](C)CO)C(=O)c2cccc(NC(=O)Nc3ccc(C(F)(F)F)cc3)c2O[C@@H]1CN(C)S(=O)(=O)c1ccccc1 | 70
C[C@@H]1CN([C@@H](C)CO)C(=O)c2cccc(NC(=O)Nc3cccc4ccccc34)c2O[C@H]1CN(C)S(=O)(=O)c1ccc(Cl)cc1 | 0
Cc1noc(C)c1S(=O)(=O)Nc1ccc2c(c1)C(=O)N([C@@H](C)CO)C[C@@H](C)[C@H](CN(C)Cc1ccccc1)O2 | -3
C[C@H]1CN([C@@H](C)CO)C(=O)c2cc(NC(=O)Nc3ccccc3)ccc2O[C@@H]1CN(C)Cc1ccc(C(=O)O)cc1 | 17
C[C@@H]1CCCCO[C@@H](CN(C)C(=O)Nc2ccc(C(F)(F)F)cc2)[C@@H](C)CN([C@H](C)CO)C(=O)c2cc(N(C)C)ccc2O1 | 68
CC(=O)Nc1[nH]c2c(c1C#N)CCCCC2 | -5
CCn1c(N)c(C(N)=O)sc1=S | 28
O=C(COc1ccccc1)Nc1ccc2oc(-c3ccccc3)nc2c1 | 41
Cc1oc2cc(O)ccc2c(=O)c1Oc1ccc(Cl)cc1 | 20
COc1ccc(S(=O)(=O)N(C)C[C@@H]2Oc3c(NC(=O)c4ccncc4)cccc3C(=O)N([C@@H](C)CO)C[C@H]2C)cc1 | 9
Cc1cc(I)ccc1NC(=O)CN(c1cccc(C(F)(F)F)c1)S(C)(=O)=O | -1
C[C@H]1CN([C@@H](C)CO)C(=O)Cc2cc(NC(=O)Nc3ccc4c(c3)OCO4)ccc2O[C@H]1CN(C)Cc1ccc2c(c1)OCO2 | 2

A second format for some results above:
SMILES: Cc1cc(N)n(-c2ccc(Oc3ccccc3)c(S(=O)(=O)O)c2)n1
  NOMO-1 viab = -7

SMILES: C[C@@H]1CN([C@H](C)CO)C(=O)c2cccc(NC(=O)Nc3ccc(C(F)(F)F)cc3)c2O[C@@H]1CN(C)S(=O)(=O)c1ccccc1
  NOMO-1 viab = 70

SMILES: C[C@@H]1CN([C@@H](C)CO)C(=O)c2cccc(NC(=O)Nc3cccc4ccccc34)c2O[C@H]1CN(C)S(=O)(=O)c1ccc(Cl)cc1
  NOMO-1 viab = 0

SMILES: Cc1noc(C)c1S(=O)(=O)Nc1ccc2c(c1)C(=O)N([C@@H](C)CO)C[C@@H](C)[C@H](CN(C)Cc1ccccc1)O2
  NOMO-1 viab = -3

Source: PubChem (Broad Institute)
